Assay outcomes from PubChem BioAssay.
Mtb betalactam: beta-lactam sensitization of Mtb H37Rv; M. tuberculosis H37Rv growth with meropenem, percent inhibition; hits of this screen are not shown here; inhibition, % at 25 µM; hit rate 0.27% among 330,000; AID 434955;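 active = about 74% or more and at least 40 points above the plate without the antibiotic, then above 30% in a dose series; inconclusive = first-round hits that could not be retested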;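 also: growth measured after seven days incubation then overnight dye step; 0% = bacteria only wells and 100% = bacteria with antibiotic; twin plates without the antibiotic show which effects depend on it; some results filed as inactive read as strong as hits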
YopH PTP inh: blocks Yersinia enterocolitica YopH tyrosine phosphatase. fluorescence Ex485/Em525. inhibition, %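 (about 10 µM by stock and volumes)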. hit rate 0.16% among 140,000. AID 898;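 active = inhibition of 50% or more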;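 also: controls were vehicle for no effect and minimum signal wells for full effect; inactives centre near -20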
RecA splice inh: Mtb RecA intein splicing inhibition. P9WHJ3. cell-free RecA intein splicing, fluorescence. inhibition, %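 (about 9 µM by stock and volumes)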. hit rate 0.75% among 290,000. AID 2221; in the data active = inhibition above about 30%; inconclusive = no clear call, values can overlap the other calls;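 also: 0% = vehicle wells and 100% = reference inhibitor control wells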
Target sequence (P9WHJ3 whole entry, looked up, canonical isoform): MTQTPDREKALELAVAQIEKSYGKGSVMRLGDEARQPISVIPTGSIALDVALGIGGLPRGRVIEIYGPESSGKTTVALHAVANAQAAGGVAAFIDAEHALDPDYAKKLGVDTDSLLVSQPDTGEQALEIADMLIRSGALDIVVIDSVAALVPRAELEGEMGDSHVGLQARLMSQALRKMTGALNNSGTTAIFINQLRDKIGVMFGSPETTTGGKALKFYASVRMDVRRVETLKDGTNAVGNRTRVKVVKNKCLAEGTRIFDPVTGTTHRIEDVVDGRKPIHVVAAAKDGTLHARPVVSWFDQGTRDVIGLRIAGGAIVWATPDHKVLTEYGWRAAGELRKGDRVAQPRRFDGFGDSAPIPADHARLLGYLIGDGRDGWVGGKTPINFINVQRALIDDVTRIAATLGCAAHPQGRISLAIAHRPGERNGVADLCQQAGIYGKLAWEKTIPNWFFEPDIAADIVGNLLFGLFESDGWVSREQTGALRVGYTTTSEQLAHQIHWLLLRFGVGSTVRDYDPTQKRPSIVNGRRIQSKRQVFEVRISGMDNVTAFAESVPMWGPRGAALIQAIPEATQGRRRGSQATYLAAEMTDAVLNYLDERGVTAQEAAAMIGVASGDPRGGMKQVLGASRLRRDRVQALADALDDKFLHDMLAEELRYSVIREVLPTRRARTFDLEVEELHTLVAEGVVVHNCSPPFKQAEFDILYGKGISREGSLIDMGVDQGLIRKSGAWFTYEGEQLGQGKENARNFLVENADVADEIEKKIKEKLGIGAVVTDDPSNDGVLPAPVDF
Mtb growth: M. tuberculosis H37Rv growth inhibitors, H37Rv strain (AID 1626); M. tuberculosis H37Rv growth inhibition; higher % means a stronger effect; hit rate 0.95% among 220,000; one-dose inhibition, % at 10 µM; IC50 in µM for titrated hits;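 active = confirmed in a dose series; inconclusive = inhibition above 80% but not taken into the dose series; inactive = below 80% or under 30% at every dose of the series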;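 also: bacteria incubated seven days before Alamar blue readout; 0% = bacteria only wells and 100% = bacteria with antibiotic wells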
Arbovirus anti: antivirals against arbovirus infection; arbovirus infection cell-based antiviral screen; inhibition, % at 10 µM; hit rate 0.37% among 200,000; AID 1251;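 active = inhibition from about 30%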;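 also: bluetongue infection of BSR cells; cell survival read as ATP light after 72 h; 0% = infected wells without compound and 100% = uninfected wells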
Arbovirus anti repeat: second read-out of Arbovirus anti, no call of its own (marks repeat the call); inhibition, %; measured here: 10K subset replicate screen; many hits read low in the repeat;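 first of two repeat runs on a subset; 0% = infected and 100% = uninfected wells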
Starred values were filed as active, the others as inactive; ? = inconclusive; nt = no result given; & = joins results of further samples. The list is partial, so the mix of outcomes need not match the whole.

SMILES	Mtb betalactam	YopH PTP inh	RecA splice inh	Mtb growth	Arbovirus anti	others
CCN(CC)S(=O)(=O)c1ccc(C(=O)Nc2cc(C)cc(C)c2)cc1	-3	-25	4.3	7%	-18
Cc1cc(C)c(S(=O)(=O)c2cc(F)ccc2C)c(=O)[nH]1	-7	nt	-1.0	nt	nt
Cc1cc(N2CCN(c3ccccn3)CC2)n2cc(-c3ccccc3)nc2n1	14	-27	1.3	-22%	3
Cc1c(Cl)cccc1NCC(=O)NN=C1CCCC1	2	nt	-0.5	-4%	0
O=C(O)C1C2CCC(C2)C1C(=O)Nc1cccc([N+](=O)[O-])c1 (stereo unspecified)	6	nt	-0.3	nt	nt
O=C(CCl)N(Cc1ccccc1)c1ccccc1	-5	nt	73*	78%	-28
Cc1ccc(N=Nc2c(C)[nH]n(-c3ccccc3)c2=O)cc1Br	2	nt	4.8	nt	nt
O=C(c1ccco1)N1CCN(C(c2ccccc2)c2nnnn2Cc2cccs2)CC1 (stereo unspecified)	-6	-40	3.0	1%	15
CCn1c(C(C)NC(=O)c2cccc(C)c2)n[nH]c1=S (stereo unspecified)	7	nt	7.5	-7%	-9
CCCCNC(=O)c1cc(-c2ccc(OC)cc2)on1	nt	-19	6.1	11%	-1
CCCN1C(=O)C2(/C(=C(\O)c3ccc4c(c3)OCCO4)C(=O)C(=O)N2CCCOC)c2ccccc21 (stereo unspecified)	-3	-45	nt	-3%	11
O=C(NCc1ccccc1)c1cccc(NS(=O)(=O)c2cccc3cccnc23)c1	-8	-8	-2.1	-3%	3
Cc1ccc2c(c1)N(S(=O)(=O)c1ccc(CN3C(=O)c4cccnc4C3=O)s1)CCO2	-7	nt	-0.7	nt	nt
O=C(CSc1ncnc2ccccc12)NCCc1ccccc1	-10	nt	4.2	6%	-6
Cc1cccc(N2CC(C(=O)O)CC2=O)c1C (stereo unspecified)	-1	nt	0.5	-9%	nt
CCOC(=O)c1sc2ccc(S(=O)(=O)N3CCOCC3)cc2c1N	5	-31	nt	-9%	7
CC(C)N1CCC(N2CCN(CC#Cc3ccccc3)CC2CCO)CC1 (stereo unspecified)	-3	nt	0.3	2%	-6
COc1ccccc1CCNC(=O)C(=O)NCC1OCCN1S(=O)(=O)c1ccc(Br)cc1 (stereo unspecified)	1	-22	5.9	10%	4
CC(C)Oc1cc(NC(=O)CS(=O)CC(=O)Nc2cccc(C(F)(F)F)c2)c(Cl)cc1Cl (stereo unspecified)	61	-18	-2.2	1%	-39
COc1cc2cc(C)c(SCC(=O)N3CCOCC3)nc2cc1OC	-3	-50	-0.8	-16%	-4
Nc1nc(SCc2ccc3c(c2)OCCO3)n[nH]1	-3	-8	-3.4	-1%	-4
CC1(c2ccccc2)NC(=O)N(CC(=O)Nc2nc(-c3ccccn3)cs2)C1=O (stereo unspecified)	13	nt	-0.2	nt	nt
O=C(Cc1cccs1)Nc1cccc(-c2nc3ccccc3[nH]2)c1	-1	12	3.4	2%	-5
CC(C)c1ccc2[nH]c(O)c(N=NC(=O)c3ccc(CSc4nncn4C)cc3)c2c1	96	-24	-2.0	-3%	-15
COc1ccccc1CN(C)C(=O)c1ccc(COc2ccccc2)cc1	8	nt	21	nt	nt
Cc1ccccc1-c1noc(CCC(=O)NCC2CCCO2)n1 (stereo unspecified)	-7	2	1.4	2%	8
COc1ccc(-n2cnc3ccccc3c2=O)c([N+](=O)[O-])c1	-10	nt	-2.4	nt	nt
O=[N+]([O-])c1ccccc1/C=C/C=N/n1c(-c2cc(-c3ccccc3)n[nH]2)n[nH]c1=S	3	nt	-1.5	-1%	nt
Cc1cc2cc(CNC(=S)NC3CCCCC3)ccc2n1C	-1	nt	nt	-1%	12
CC(CN1CCOCC1)OC(=O)C(c1ccccc1)c1ccccc1 (stereo unspecified)	8	-23	-36	-1%	-2

3 compounds from above, ordered by number of heavy atoms, rising:
SMILES	Mtb betalactam	YopH PTP inh	RecA splice inh	Mtb growth	Arbovirus anti	others
COc1ccc(-n2cnc3ccccc3c2=O)c([N+](=O)[O-])c1	-10	nt	-2.4	nt	nt
Cc1ccccc1-c1noc(CCC(=O)NCC2CCCO2)n1 (stereo unspecified)	-7	2	1.4	2%	8
CC(CN1CCOCC1)OC(=O)C(c1ccccc1)c1ccccc1 (stereo unspecified)	8	-23	-36	-1%	-2

(next part)
SMILES	Mtb betalactam	YopH PTP inh	RecA splice inh	Mtb growth	Arbovirus anti	others
O=C(/C=C/c1ccc(Cl)cc1)N1CCN(c2ncccn2)CC1	nt	-6	nt	-2%	5
COc1cccc(/C=C/C(=O)Nc2ccc(C(=O)Nc3cccc(S(N)(=O)=O)c3)cc2)c1OC	10	nt	-1.0	nt	nt
O=C(CSc1nncs1)Nc1nnc(-c2ccccc2)o1	0	nt	-1.4	nt	nt
COc1ccc(C2C(C(=O)NCc3cccnc3)c3ccccc3C(=O)N2C)cc1OC (stereo unspecified)	6	-44	nt	-16%	1	Arbovirus anti repeat=3
O=C(OC1CCOC1=O)c1cc(-c2ccc(Br)cc2)nc2ccccc12 (stereo unspecified)	4	20	3.2	2%	14
O=C(NNC(=S)NC(=O)c1cccc([N+](=O)[O-])c1)c1ccc(Br)cc1	97	nt	0.1	nt	nt
NS(=O)(=O)c1ccc(NC(=O)/C=C/c2ccc3c(c2)OCO3)cc1	2	nt	-1.2	-9%	-22
CCCc1cc(=O)[nH]c(SCc2cc(Cl)ccc2OC(F)F)n1	nt	-6	4.5	11%	10
CCn1c(SCC(=O)O)nnc1-c1cccnc1	-2	nt	0.8	-5%	6
COc1ccc(OC)c(S(=O)(=O)Oc2ccc(N)c3ccccc23)c1	-14	nt	17	nt	nt
Cc1ccc(OCC(O)CNS(=O)(=O)c2ccccc2C(=O)N2CCCCC2)cc1 (stereo unspecified)	-3	-35	-3.0	-2%	3
COc1ccccc1C(=O)Nc1cc(C)ccc1NC(=O)c1ccco1	-3	nt	2.0	nt	nt
CC(=O)C1=C(c2ccccc2)OC(N)=C(C#N)C1c1ccccc1C (stereo unspecified)	1	-4	3.8	-1%	-2
N#CCS(=O)(=O)c1ccccc1	-9	nt	-0.5	nt	nt
O=C(O)CSCc1nc2ccccc2[nH]1	2	nt	0.5	0%	8
Cc1cc(C)cc(OCC(=O)OCC(=O)NCCC2=CCCCC2)c1	6	-17	0.2	-2%	5
O=C1CN=C(c2ccc(Cl)cc2)c2oc3ccccc3c2N1	68	nt	-1.9	1%	nt
CC(=O)Nc1ccc(NC(=O)C2CCN(S(=O)(=O)c3cccc4nonc34)CC2)cc1	0	-31	-2.0	3%	-5
CCc1ccc(CN2CCC(Oc3ccc(C(=O)NCc4ccccn4)cc3)CC2)o1	-5	nt	0.2	nt	nt
COc1ccc(-c2nc3ccccc3n2Cc2ccc(C)cc2)cc1	53	-1	4.8	14%	2
Cc1ccc(S(=O)(=O)N(CCCN(C)C)Cc2ccc3c(c2)OCO3)cc1	4	nt	-2.3	nt	nt
CCCC1C2CN(C(C)=O)CC=C2C(C#N)=C(N)C1(C#N)C#N (stereo unspecified)	5	-20	1.0	-6%	1
COc1cc(-c2nn3c(-c4cccnc4)nnc3s2)cc(OC)c1OC	8	-11	1.0	-8%	-3
Cc1ccc(NC(=O)N[C@H](C(=O)O)C(C)C)c(C)c1	-8	nt	1.7	-4%	nt
COc1ccccc1CNC(=O)CCS(=O)(=O)c1ccc2c(c1)CC(C)N2C(=O)C1CC1 (stereo unspecified)	-2	nt	0.8	nt	nt
CCCCc1nc(Cl)c(CO)n1Cc1ccc(-c2ccccc2-c2nnn[nH]2)cc1	-6	nt	0.0	-12%	nt
Cc1ccc(N(C(=O)Nc2ccccc2)C2=NCCC2)cc1	32	nt	10	15%	nt
Cc1ccc(-c2csc(=S)n2CC(=O)OCC(=O)NCc2ccc(F)cc2)cc1	4	3	5.6	-3%	1
CCCCCC(=O)NNC1=NCC(Cc2ccccc2)S1 (stereo unspecified)	?	nt	1.3	3%	-7
CSc1nc(N)nc(SCC(=O)C(C)(C)C)c1C#N	-2	-4	-1.1	0%	-7
COCC(=O)N1CCC(Oc2ccc(C(=O)NCc3csc(C(C)C)n3)cc2)CC1	-5	nt	-2.3	nt	nt
c1cnc(N2CCN(Cc3ccc4c(c3)OCO4)CC2)nc1	2&5	-16	-3.2	-9%&5%&6%	-7&-8
CCOc1nc2ccccc2cc1C=O	5	nt	2.4	-9%	-9
COc1ccc(N2CCN(S(=O)(=O)CCNS(=O)(=O)c3ccccc3)CC2)cc1	-15	nt	-2.3	nt	nt
c1ccc(-c2n[nH]c3ccccc23)cc1	-7	-6	3.8	-4%	6
CCOC(=O)C1CCN(C(=O)C2CCCN(S(=O)(=O)c3ccc(OC)c(Cl)c3)C2)CC1 (stereo unspecified)	-12	nt	0.9	nt	nt
Cc1ccc2[nH]cc(CCCN3C(=O)c4ccccc4C3=O)c2c1	15	-24	4.6	5%	5
CC(=O)NCCOc1ccc(C(=O)O)cc1	-4	-27	-3.3	14%	3
COc1ccc(NC(=S)N(CCN2CCCCC2)Cc2ccco2)cc1	0	nt	0.8	-4%	-8
Cc1ccc(S(=O)(=O)CC(=O)Nc2ncc([N+](=O)[O-])s2)cc1	-2	nt	12	nt	nt
CC(=O)c1c(C)[nH]c(C(=O)COC(=O)c2cccc(S(=O)(=O)N(C)c3ccccc3)c2)c1C	1	-23	0.5	2%	-1
C/C(CCc1ccccc1)=N\NC(=O)CCc1ccccc1	4	-5	-3.2	1%	-3
O=C(N/N=C/c1ccoc1)c1ccccc1Br	4	nt	-1.1	nt	nt
O=C(COc1ccccc1)OC(C(=O)c1ccccc1)c1ccccc1 (stereo unspecified)	-4	-24	0.4	6%	-2
Cc1nn(-c2ccccc2)c(Cl)c1/C=N/NC(=O)c1ccccc1F	48	nt	4.5	7%	nt
S=C(NCc1ccco1)N/N=C/c1ccncc1	-4	nt	1.9	-3%	nt
COc1ccc(/C=N/N=C(\N)c2nonc2N)cc1OC	-5	nt	-3.8	-10%	-3
CCC(=O)N/C(=N/c1nc(C)cc(C)n1)Nc1ccc(C)cc1	-1	nt	2.0	nt	nt
C=CCCC(=O)Nc1nc(C)c(-c2csc(Nc3cc(OC)ccc3OC)n2)s1	94	-39	3.9	5%	-19
Oc1c(Cl)cc(Cl)cc1C=Nc1ccccc1N1CCCC1	1	-64	-18	-4%	-6

(continued)
SMILES	Mtb betalactam	YopH PTP inh	RecA splice inh	Mtb growth	Arbovirus anti	others
COc1cc2c(cc1OC)C(C(=O)O)C(c1ccc(C)o1)N(C)C2=O (stereo unspecified)	-5	-17	9.7	-6%	-1
CCCc1nc(-c2ccccc2O)n(-c2ccccc2)n1	-3	15	2.1	6%	0
COc1cccc(NC(=O)Nc2nc(SC)ns2)c1	-6	nt	3.4	nt	nt
O=C(C(=O)N1CCN(c2cccc(Cl)c2)CC1)c1cn(CC(=O)N2CCOCC2)c2ccccc12	-2	nt	-0.3	nt	nt
C/C(=N\NC(=O)c1ccn(C)n1)c1ccco1	0	nt	-1.5	nt	nt
Cc1noc(C)c1CSCC(=O)Nc1cc(Cl)ccc1N1CCOCC1	-9	nt	-1.3	nt	nt
COc1ccc(NS(=O)(=O)c2ccc(F)c(Cl)c2)cn1	-1	nt	4.3	nt	nt
O=C(CSc1ccccn1)Nc1cccc2ccccc12	10	nt	16	-4%	-4
CCC(=O)N1c2ccc(S(=O)(=O)CCC(=O)N3CCN(c4ccccc4)CC3)cc2CC1C (stereo unspecified)	-2	-44	-0.4	nt	3
Nc1ccccc1C(=O)OCCOc1ccccc1	7	-37	nt	9%	-5

Fetched by compound from above, 3 records:
SMILES	Mtb betalactam	YopH PTP inh	RecA splice inh	Mtb growth	Arbovirus anti	others
Nc1ccccc1C(=O)OCCOc1ccccc1	7	-37	nt	9%	-5
COc1ccc(NS(=O)(=O)c2ccc(F)c(Cl)c2)cn1	-1	nt	4.3	nt	nt
C/C(=N\NC(=O)c1ccn(C)n1)c1ccco1	0	nt	-1.5	nt	nt

Next section.
SMILES	Mtb betalactam	YopH PTP inh	RecA splice inh	Mtb growth	Arbovirus anti	others
COc1cc(CNc2ccc(N3CCCC3)cc2)ccc1OCc1ccccc1F	4	31	nt	46%	-6
CN(C(=O)COC(=O)Cn1c(C(F)(F)F)nc2ccccc21)c1c(N)n(Cc2ccccc2)c(=O)[nH]c1=O	-6	nt	-5.2	nt	nt
COc1ccc(S(=O)(=O)N(CC(=O)O)Cc2ccccc2)cc1OC	3	-12	-2.1	-14%	3
COc1cccc2sc(NC(=O)c3ccc(S(=O)(=O)N4CCOCC4)cc3)nc12	-6	-46	-0.8	-3%	4
Cc1cccc(C)c1NC(=O)c1sccc1SCc1cccc(C(F)(F)F)c1	-1	-13	18	4%	-7
Cc1cnc(CN(C)Cc2c(C(=O)N3CCCCCCC3)nc3ccc(Cl)cn23)[nH]1	?	nt	2.2	nt	nt
CC(C)(C)SC(=O)CC1NS(=O)(=O)OC2CCCCC12 (stereo unspecified)	-2	nt	-1.0	nt	nt
